# Source: PubChem BioAssay (ICCB-Longwood Screening Facility, Harvard Medical School)
# MgrA DNA FP – S. aureus MgrA activity modulators, primary screen, biochemical, S. aureus Newman, fluorescence polarization; MgrA-DNA binding; inhibition, %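 (about 10 µg/mL by stock and volumes)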; 84,000 compounds, 0.13% hits;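 active means above 50% in either of two replicates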;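 further: 0% = protein plus DNA without compound and 100% = DNA alone without protein; higher means less MgrA bound to DNA so lower polarization; one replicate is shown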
# S aureus helic – inhibitors of S. aureus replicative helicase, primary screen, biochemical, fluorescence unwinding readout; replicative DNA helicase (DnaC/DnaB), Staphylococcus aureus; purified S. aureus helicase, fluorescence unwinding assay; about half of the hits fall short of the stated cut; inhibition, %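 (tested at about 80 µM)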; 120,000 compounds, 0.05% hits; AID 485395, 2010;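 active means both duplicates at 50% or more, or one of them with a favoured structure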;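 further: 0% = mean of negative control wells and 100% = mean of positive control wells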
# * marks the source's active call; other numbers are inactive results; · = not tested or not shown.
SMILES,MgrA DNA FP,S aureus helic
CCC(=O)c1cc(Cl)ccc1O,·,12
O=C(Oc1ccc(-c2nnco2)cc1)c1cccc(S(=O)(=O)N2CCc3ccccc32)c1,·,-6
CC1CCc2cc(F)ccc2N1C(=O)Nc1ccc(F)cc1 (configuration not stated),0.5,5
CN(C)C(=O)COC(=O)c1cc(Cl)cc(Cl)c1N,-1.8,-6
Cc1ccc(S(=O)(=O)Nc2ccc(C)cc2NS(=O)(=O)c2ccc(C)cc2)cc1,0.6,·
N#Cc1cn(CC(=O)Nc2ccccc2C(F)(F)F)c2ccccc12,-0.8,1
Cn1nc(C(=O)OCC(=O)NCc2ccc(Cl)cc2)c2ccccc2c1=O,·,-3
CCCOc1c(Br)cc(C(=O)O)cc1OC,-1.2,4
CCC(=O)N(c1nnc(SCC(=O)c2ccc(CC(N)=O)s2)s1)C1CC1,·,-21
CCCN(CC1CC1)C(=O)CSc1nc2ccccc2c(=O)n1CCC,·,-19
c1ccc2c(c1)ncn2CN1CCCCC1,1.8,·
COC(=O)c1cc(N2CCNCC2)nc2ccccc12,-0.8,-10
NC(=O)Cc1c[nH]c2ccccc12,·,-1
CC1CCN(C(=O)COC(=O)/C=C/c2ccccc2Cl)CC1,0.1,-15
O=C(NCCCN1CCCCCC1)c1ccc2c(Cl)c3c(nc2c1)CCCC3,0.8,17
CCN=c1scc(-c2ccc(Br)s2)n1N=C1CCCCC1,·,-9
CN(CC(=O)NC1CCCC1)Cc1ccc(Cl)s1,·,-9
CC1Cc2ccccc2N1CC(=O)NC(=O)NC1CCCCC1 (configuration not stated),·,-4
CCOC(=O)c1cccnc1SCC(=O)Nc1ccc(C)cc1,2.0,7
CCc1ccc(NC(=O)CSc2nc3ccccc3c(=O)n2CCCC(=O)N2CCCC2)cc1,0.6,-5
CCOC(=O)c1ccc(NC(=O)CSC2=NC(=O)C(CC)C(=O)N2)cc1 (configuration not stated),0.3,4
Cc1cc(Nc2cccc(C(F)(F)F)c2)nc2ccc(NC(=O)c3ccc(Br)o3)cc12,·,-19
O=C(Nc1ccc(Cl)cc1)c1cc(-c2cccs2)on1,-0.6,·
O=C(CC(NCc1ccco1)C(=O)O)Nc1ccccc1 (configuration not stated),·,-10
CCOC(=O)Cc1csc(SCC(=O)NC)n1,·,-12

# Full records as entered above.
# O=C(NCCCN1CCCCCC1)c1ccc2c(Cl)c3c(nc2c1)CCCC3 is entered as MgrA DNA FP: 0.8; S aureus helic: 17
# Cc1cc(Nc2cccc(C(F)(F)F)c2)nc2ccc(NC(=O)c3ccc(Br)o3)cc12 is entered as MgrA DNA FP: ·; S aureus helic: -19
# NC(=O)Cc1c[nH]c2ccccc12 is entered as MgrA DNA FP: ·; S aureus helic: -1

# More results:
SMILES,MgrA DNA FP,S aureus helic
COC(=O)c1ccccc1NC(=O)CSc1nnc(-c2cc3cccc(OC)c3o2)n1C,2.8,9
COc1ccc(C2CC(=O)C3=C(C2)Nc2ccccc2N(C(=O)C(F)(F)F)C3c2ccc(OC)c(OC)c2)cc1 (configuration not stated),-1.1,·
COc1ccc(/C=C2\C(=O)NC(=O)N(C)C2=O)cc1,9.6,-2
CCOC(=O)c1c(C)oc2nc(C)nc(N3CCc4ccccc43)c12,·,-24
COC(=O)c1sccc1N/C=C(\C#N)S(C)(=O)=O,-3.0,·
CC(=O)Nc1ccc(Cl)cn1,-0.3,-2
COC(=O)c1cnn2c(C(F)(F)F)cc(C(F)(F)F)nc12,3.2,·
CN(CC(=O)Nc1cccc(F)c1)CC(=O)N1CCN(C(=O)c2ccco2)CC1,·,-12
COc1ccc(C(CC(=O)Nc2ccc3c(c2)OCO3)N2Cc3ccccc3C2=O)cc1 (configuration not stated),·,-28
CCOc1ccc(NC(=O)N(CCC(C)C)C(C)c2cccs2)cc1 (configuration not stated),3.5,9
C/C(=C/C(=O)C(F)(F)F)N1CCC(C(N)=O)CC1,·,2
C=CCN(CC=C)C(=S)Nc1ccc(S(N)(=O)=O)cc1,0.2,10
Cc1cc(NC(=O)c2ccc3nc(N4CCOCC4)sc3c2)ccc1Br,1.4,-1
O=S(=O)(Cc1ccc(Cl)cc1)N1CCCC1,-0.4,1
O=C(N/N=C1/C(=O)c2cccc3cccc1c23)c1ccncc1,·,16
CN(Cc1ccco1)S(=O)(=O)c1ccc2[nH]cc(C(=O)O)c(=O)c2c1,·,19
CCCN(C(=O)[C@H]1[C@@H]2C[C@@H]3[C@H]1C(=O)O[C@@H]3C2)c1ccccc1OCC,-1.1,6
O=C(Oc1ccc(Oc2ncc(Cl)cc2Cl)cc1)c1ccco1,·,18
COc1ccccc1C1CCN(C(=O)c2cccnc2Sc2ccc(C)cc2)CC1,0.1,·
CC(C)CC(NC(N)=O)C(=O)NCc1ccccc1Cl (configuration not stated),·,-23
O=C(CCS(=O)(=O)Cc1ccccc1)Nc1cccnc1,3.5,-15
Cc1ccc(CNC(=O)c2ccc3c(c2)n(C)c(=O)c(=O)n3C)cc1,0.6,-7
CN1C(=O)COc2ccc(C(=O)c3ccccc3C(=O)O)cc21,-2.1,-2
c1coc(-c2nccs2)c1,1.6,·
COC(=O)c1cc(OC)c(OC)cc1NC(=O)c1ccc2c(=O)n3c(nc2c1)CCCCC3,·,4

# More compounds
SMILES,MgrA DNA FP,S aureus helic
O=C(Nc1ccccc1O)c1sc2ccccc2c1Cl,-1.1,-12
O=C(c1c[nH]c(-c2nc3ccccc3[nH]2)c1)c1ccccc1O,·,-11
CCCCN1C(=O)C2(/C(=C(/O)c3ccc(OCC)cc3)C(=O)C(=O)N2CCOC)c2ccccc21 (configuration not stated),·,-11
COc1ccccc1NC(=O)NC(C)(C)CC(C)(C)C,1.9,5
O=C(/C=C1\Sc2ccccc2NC1=O)NCCc1ccccc1,0.2,-5
CCOC(=O)c1ccc2c(c1)[C@@H]1C=CC[C@@H]1[C@H](c1cccnc1)N2,·,-23
COc1ccc(C2SCC(=O)N2CCN2CCCCC2)cc1OC (configuration not stated),4.8,17
CCN1CCN(C(c2cccs2)C(C)NC(=O)c2cccc(OC)c2)CC1 (configuration not stated),·,-3
CCCCC1(C(=O)OC)NC(c2ccc(O)cc2)C2C(=O)N(c3ccccc3)C(=O)C21 (configuration not stated),-1.8,10
CCCCC/C=C\C/C=C\CCCCCCCC(=O)O[C@@H](CO)COC(=O)CCCCCCCCCCCCCCCCC,-2.2,·
C=CCN1C(=O)C(CC(=O)Nc2ccc(C)cc2)SC1=Nc1cccc(O)c1 (configuration not stated),·,26
O=C(Nc1ccccc1)Nc1ccc(Oc2ncnc3cc(Cl)ccc23)nc1,2.6,·
COC(=O)c1nnn(-c2nonc2N)c1CSc1ccccn1,3.4,1
Cn1c(=O)c2cc(Br)ccc2n(C)c1=O,-1.2,13
CCCN(CCC)S(=O)(=O)c1ccc(C(=O)NNC(=O)c2cc(OC)c(OC)c(OC)c2)cc1,-0.1,·
COc1ccc(NC(=O)CSc2nnc(N)n2CC(=O)Nc2ccc(OC)cc2)cc1,-0.4,9
CC1(C)CC(=O)C2=C(C1)OC(N)=C(C#N)C2c1ccc(OCc2ccccc2)cc1 (configuration not stated),-1.9,·
CNC(=S)N/N=C(\C)c1cccc(C(F)(F)F)c1,·,-1
COC(=O)c1ccc2c(=O)[nH]c(CSc3nnc(N)s3)nc2c1,·,-1
O=C(Sc1ccc(Cl)cc1)c1ccno1,·,10
O=C(/C=C/c1cccs1)NCCN1C(=O)S/C(=C\c2cccs2)C1=O,·,-10
Cc1c(C(=O)NCc2ccncc2)cnn1-c1ccc(F)cc1,-0.3,·
COc1ccc(CNC(=O)CCCOc2ccccc2)cc1,·,-12
CCn1c(O)c(N=Nc2c(C)n(C)n(-c3ccccc3)c2=O)sc1=S,·,10
Cc1[nH]c2ccc(C(=O)NCC3CCCO3)cc2c1C (configuration not stated),·,29*

# Laid out differently: entries from further up
# Order of results – MgrA DNA FP, S aureus helic
C=CCN1C(=O)C(CC(=O)Nc2ccc(C)cc2)SC1=Nc1cccc(O)c1 (configuration not stated)
 : ·, 26
O=C(Nc1ccccc1)Nc1ccc(Oc2ncnc3cc(Cl)ccc23)nc1
 : 2.6, ·
COC(=O)c1nnn(-c2nonc2N)c1CSc1ccccn1
 : 3.4, 1
Cn1c(=O)c2cc(Br)ccc2n(C)c1=O
 : -1.2, 13
CCCN(CCC)S(=O)(=O)c1ccc(C(=O)NNC(=O)c2cc(OC)c(OC)c(OC)c2)cc1
 : -0.1, ·
COc1ccc(NC(=O)CSc2nnc(N)n2CC(=O)Nc2ccc(OC)cc2)cc1
 : -0.4, 9
CC1(C)CC(=O)C2=C(C1)OC(N)=C(C#N)C2c1ccc(OCc2ccccc2)cc1 (configuration not stated)
 : -1.9, ·

# Other compounds follow:
SMILES,MgrA DNA FP,S aureus helic
CC(C)c1ccc(-c2csc3nc[nH]c(=O)c23)cc1,0.7,1
O=c1[nH]ccn(-c2c(F)cccc2F)c1=O,0.8,·
NS(=O)(=O)c1ccc(CCNC(=O)C2(S(=O)(=O)c3ccc(Cl)cc3)CC2)cc1,·,-21
O=C(Cn1c(=O)cnc2ccccc21)NC(=O)NC1CCCCC1,·,-11
Cc1nnc(SCCN2C(=O)c3ccccc3C2=O)[nH]c1=O,·,3
COc1ccc(S(=O)(=O)N2CCC(C(=O)NC(c3nc4ccccc4[nH]3)C(C)C)CC2)cc1 (configuration not stated),·,-19
O=C(CSc1nc2scc(-c3ccco3)c2c(=O)n1-c1ccccc1)Nc1ccccc1,·,11
CC(=O)Nc1ccc(N2COc3ccc(Cl)cc3C2)cc1,-0.5,9
O=S(=O)(/C=C/c1ccccc1)N1C=Cc2ccccc2C1c1c[nH]c2ccccc12 (configuration not stated),2.4,0
CCSc1nnc(NC(=O)COc2ccc(Cl)cc2)s1,·,13
O=C(NCc1ccco1)C1CCN(c2nc3ccccc3[nH]2)CC1,11,2
CCc1nn(CC(=O)NCCCN2CCC(Cc3ccccc3)CC2)c(=O)c2cc3occc3n12,·,34
COc1ccc(Cn2c(SCC#N)nc3ccc(N4CCOCC4)cc3c2=O)cc1,2.0,18
N#CCC(=O)NN=C1CCCCC1,-0.1,·
COc1cc(Sc2ccc(Cl)cc2)ccc1[N+](=O)[O-],-3.2,·
COc1ccccc1Nc1nc2ccccc2n1C,·,-2
O=C(NCCN1CCN(c2ccccc2F)CC1)C1CCCN(S(=O)(=O)c2cnc[nH]2)C1 (configuration not stated),-0.6,18
Cc1ccc(N2CCN(C(=S)c3ccc(N(C)C)cc3)CC2)cc1,7.1,17
NC(=O)c1ccc(Oc2ccc(Cl)cc2)nc1,2.9,·
CSc1ccccc1NC(=O)CN(C)CC(=O)N1CCN(C(=O)c2ccco2)CC1,·,-2
O=C1NCCCCC1NS(=O)(=O)c1cccs1 (configuration not stated),-0.6,·
Cc1cc(C)c2c(c1)OCN(Cc1ccc(Cl)cc1)C2,-0.1,-4
Oc1ccccc1CNCC1CCCO1 (configuration not stated),-6.0,-17
Cc1ccc2nc(Nc3nccc(C)n3)nc(C)c2c1,-2.1,-9
CC1(C)CC(=O)C/C(=N\Nc2n[nH]c(=O)[nH]c2=O)C1,·,-1

# Carrying on.
SMILES,MgrA DNA FP,S aureus helic
COc1cccc2ccc(Cl)nc12,0.0,6
COc1ccccc1CCNC(=O)c1nccnc1C(=O)O,·,14
COc1ccc(CNC(=O)CC2CCCCC2)cc1,3.4,-6
Cc1c(C(=O)NC(C)CCc2ccccc2)oc2c1C(=O)CCC2 (configuration not stated),·,-6
CSc1cccc(NC(=O)CSc2nc3ccncc3[nH]2)c1,·,26
O=C(Nc1ccc(-c2cn3ccsc3n2)cc1)c1ccc2c(=O)n3c(nc2c1)CCCCC3,·,-2
CSc1nnc(-c2csc(C)n2)n1-c1cccc(F)c1,-1.3,·
N#C/C(=C\c1ccc(Sc2nc3ccccc3[nH]2)o1)c1ccccc1,3.6,7
COC(=O)c1c(N)sc2c1CCCCC2,·,5
Cc1ccc(CN(C)c2nc(-c3cccnc3)nc3sc4c(c23)CCCC4)o1,·,-6
O=C(CSC(=S)NNc1ccccc1)c1ccc(Cl)cc1,0.0,·
Cc1ccc(C)n1CC1CCCO1 (configuration not stated),4.2,-11
O=c1[nH]c2cc(Cl)ccc2c(-c2ccccc2)c1SC1=NCCS1,2.2,10
CC(C)(CNC(=O)c1ccccc1Sc1ccccc1C#N)N1CCOCC1,·,-9
CCOc1cc(/C=C/C(=O)O)ccc1OCc1ccccc1,0.8,-10
Cc1cc(O)c(C=Nc2ccc(I)cc2)c(=O)o1,·,-22
CCOC(=O)/C(C#N)=C\c1cccn1C,0.1,17
COc1cccc(OCC(=O)Nc2ccncc2)c1,6.5,-16
CC1(C)Cc2cccc(C(=O)Nc3ccc(F)cc3F)c2O1,-2.5,·
CCOc1ccccc1COC(=O)Cc1coc2cc(O)ccc12,·,-5
O=C(c1ccc(N2CCOCC2)nc1)N1CCN(C(c2ccccc2)c2ccccc2)CC1,·,26
CCCCN1C(=O)CN(CCc2ccccc2)C(=O)C1c1ccc(OC)cc1 (configuration not stated),·,-9
CN(CC(=O)NC1CCCCCCC1)S(=O)(=O)c1ccc2[nH]c(=O)oc2c1,·,4
Cc1cc(=O)oc2cc(OCC(=O)c3ccccc3F)ccc12,2.2,-18
COC(=O)c1ccc(NS(=O)(=O)c2ccc3c(c2)CC(C)N3C(=O)C2CCC2)cc1 (configuration not stated),·,-19
CC(=O)OCC(=O)[C@@]12OC(C)(C)O[C@@H]1C[C@H]1[C@@H]3C[C@H](F)C4=CC(=O)C=C[C@]4(C)[C@@]3(F)[C@@H](O)C[C@@]12C,1.1,·
CC(C)c1cc(C(C)C)c(S(=O)(=O)NCCC(=O)O)c(C(C)C)c1,-0.3,4
O=C(Nc1ccc(Cl)cc1)c1c[nH]n2c(=O)cc(C3CCNCC3)nc12,0.8,9
COC(=O)c1ccc(CSc2nc3ccccc3c(=O)n2C(C)c2ccccc2)o1 (configuration not stated),·,-4
O=C(O)c1ccc(-n2nnnc2SCc2ccccc2F)cc1,·,-14

# Only part of the results is shown; count on the stated rates, not on these rows.
